High-throughput results as filed in PubChem.
Rango complex inh – Rango-importin beta binding inhibition. Q14974. Rango CFP/YFP FRET sensor + importin beta, 45 min. Potency, µM (highest dose often 92.2 µM), for inactives: top-dose inhibition of complex formation. actives 0.031% (n = 340,000). AID 540263; active = rising FRET ratio curve, often small or poorly fitted; inconclusive = mostly compound fluorescence or quenching in the first reads; inactive = flat curves in all reads;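 also: potency is read from the fitted curve at half-maximal effect; 0% = DMSO wells and 100% = buffer wells lacking importin beta; nearly all actives have a fitted effect of over 15% in size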
Target sequence (Q14974 whole entry, looked up): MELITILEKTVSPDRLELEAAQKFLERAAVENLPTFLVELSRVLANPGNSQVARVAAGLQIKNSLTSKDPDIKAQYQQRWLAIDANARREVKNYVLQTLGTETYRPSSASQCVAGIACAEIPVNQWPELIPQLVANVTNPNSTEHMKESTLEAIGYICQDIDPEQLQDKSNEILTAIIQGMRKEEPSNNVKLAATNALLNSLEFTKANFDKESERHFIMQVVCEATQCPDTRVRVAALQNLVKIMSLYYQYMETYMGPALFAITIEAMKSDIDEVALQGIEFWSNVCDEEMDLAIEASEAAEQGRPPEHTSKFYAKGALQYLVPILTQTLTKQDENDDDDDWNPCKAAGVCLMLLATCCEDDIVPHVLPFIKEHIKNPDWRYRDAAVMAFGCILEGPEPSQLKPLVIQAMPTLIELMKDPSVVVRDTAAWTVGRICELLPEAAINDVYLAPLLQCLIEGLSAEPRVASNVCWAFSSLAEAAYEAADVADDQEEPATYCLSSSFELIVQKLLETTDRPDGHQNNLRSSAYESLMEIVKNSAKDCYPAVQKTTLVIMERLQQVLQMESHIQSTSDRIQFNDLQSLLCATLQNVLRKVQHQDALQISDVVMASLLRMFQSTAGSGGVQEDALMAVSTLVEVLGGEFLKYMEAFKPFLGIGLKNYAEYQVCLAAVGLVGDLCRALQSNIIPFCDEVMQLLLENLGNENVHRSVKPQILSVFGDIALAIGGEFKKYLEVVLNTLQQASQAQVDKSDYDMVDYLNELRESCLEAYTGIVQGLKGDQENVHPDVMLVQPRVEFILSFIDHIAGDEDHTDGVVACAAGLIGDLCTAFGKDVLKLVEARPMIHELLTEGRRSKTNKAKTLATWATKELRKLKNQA
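FRET biosensor (snurportin 1 IBB flanked by EYFP and cerulean), 50 nM, with compound 5 min, then 0.125 microM importin beta in PBS, 1 mM DTT, 0.02% Tween-20, 0.1% BSA. CFP/YFP ratio read after 45 min at room temperature; pre-read flags interference.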
miR-21 FLuc – raises the signal of a miR-21 reporter. Potency, µM (top dose mostly 38.3 µM), without a hit: at the highest dose reporter change, positive = more light. AID 2288. HeLa miR-21 FLuc reporter, luciferase, 48 h. 340,000 tested, under 10 active; active = well fitted rising curve with a large enough effect; inconclusive = small, poorly fitted or top-dose-only effect; inactive = no such curve, though single readings can be large or run the other way;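 also: % of control where 0% means no effect; miR-21 action dims this reporter so a rising signal means less miR-21 action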
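Using DMEM plus 10% FBS, HeLa miR-21-FLuc cells are incubated with test compounds (final up to about 40uM) for 48 hours; firefly luciferase signal is then imaged following reagent-mediated lysis.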
Rango dissoc inh – inhibitors of RanGTP-induced Rango-importin beta complex dissociation; actives 0.071% (n = 340,000); Biochemical FRET Rango-importin beta, RanGTP-induced dissociation; O95149+P62826; Potency, µM (top dose mostly 46.1 µM), for inactives: at the top dose activity change, negative = inhibition; AID 540253; active means falling FRET ratio curve, often poorly fitted, with flat reads before Ran was added; inconclusive means other falling curves, or compound fluorescence or quenching; inactive means flat or rising ratio curve;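 also: potency is read from the fitted curve at half-maximal effect; % of control where 0% means no effect; nearly all actives have a fitted effect of over 45% in size; -100% = wells without RanGTP and RCC1; the record marks most hits as doubtful in a second field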
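Rango FRET biosensor (snurportin-1 IBB flanked by N-terminal EYFP and C-terminal CFP10) at 0.1 uM, with 0.25 uM importin beta in PBS, 1mM DTT, 0.02% Tween-20, 0.1% BSA. 0.6 uM Ran, 2mM GTP and 0.2 uM RCC1 were then added for 45 min at room temperature. Inhibition read as loss of FRET rise.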
GLA inh pH 4.5 – alpha-galactosidase A (human) inhibition, pH 4.5; P06280; purified enzyme, 4-MU-alpha-Gal fluorescence, pH 4.5; activity change, negative = inhibition, % at 105 µM; 230,000 tested, under 10 active; inconclusive = small, poorly fitted or top-dose-only inhibition, or a rising curve; inactive = flat fitted curve, though single readings scatter; no compound was filed as active;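 also: 0% = full activity with enzyme and -100% = basal without enzyme; dose as in the result columns while the protocol names 77 µM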
Numbers without * were called inactive; ? = inconclusive; . = no result given; & = joins results of further samples; [ ] = dose if it differs, or a comment.

Values run as follows: Rango complex inh, GLA inh pH 4.5, miR-21 FLuc, Rango dissoc inh
C=CCNC(=O)CN1C(=O)c2cccc3cccc1c23
    ?, ., -10%, ?
Nc1c(Cl)ncnc1N/N=C/c1ccnc2ccccc12
    0.4%, -9, -26%, 2%
COc1ccc(N(C(=O)c2snc(C(N)=O)c2N)C(C(=O)NC2CCCC2)c2ccc3ncccc3c2)cc1 (centres undefined)
    -0.9%, ., -3%, 1%
CCOC(=O)c1c(CN(CC)CC)n(C)c2cc(Br)c(O)cc12
    -0.1%, -3, -12%, 0%
CCOC(=O)c1cnc2ccc(C)cc2c1Sc1ccccc1
    -0.2%, -9, -11%, 18%
CCn1c(Cc2ccccc2)nnc1SCC(=O)Nc1ccccc1N1CCOCC1
    -1.1%, 10, 2%, 0%
O=C(NCC(=O)N1CCN(S(=O)(=O)c2ccccc2)CC1)c1ccc2ccccc2c1
    3.8%, ., ., 17%
CC(=O)c1cccc(NS(=O)(=O)c2ccc(N/C=C\C(=O)c3ccc(F)cc3)cc2)c1
    ?, -3, 25%, ?
COc1ccc2[nH]cc(C(=O)CN3CC(C)CC(C)C3)c2c1 (centres undefined)
    0.3%, ., -7%, 0%
COc1ccccc1N1CCN(C2CCCN(C(=O)CCN3CCCCO3)C2)CC1 (centres undefined)
    3.0%, ., 0%, -11%
Cn1c(=O)n(C)c2cc([N+](=O)[O-])c(N3CCN(C(=O)C(C)(C)C)CC3)cc21
    -2.3%, 4, 1%, -15%
C=CCN(C(=O)CSc1nc2ccsc2c(=O)n1Cc1ccccn1)c1ccccc1
    -3.2%, -3[21.1 µM], -27%, -16%
N#Cc1c2ccc(O)cc2n2ccccc12
    ?, -28, 20%, ?
CC1CCCCN1S(=O)(=O)c1cccc2nonc12 (centres undefined)
    1.3%, ., -6%, -6%
COCc1[nH][nH]c(=O)c1C=Nc1ccc(OC(F)(F)F)cc1
    0.2%, 9, 1%, -16%
Cc1cccc(C(=O)OCC(=O)NCC2COc3ccccc3O2)c1 (centres undefined)
    1.8%, ., ., -1%
COc1ccc(N2C(=O)CC(NNC(=O)c3ccc(Br)s3)C2=O)cc1 (centres undefined)
    -1.1%, 13, -4%, -6%
CC1CCCCN1CCCNc1c(C=O)c(=O)[nH]c2ccccc12 (centres undefined)
    ?, ., -2%, 1%
CCOC(=O)/C(C(N)=NC(C)C)=C(\O)c1ccccc1
    5.2%, 2, -13%, -14%
Cc1ccc(-c2ccc([C@H]3[C@H]4C=CC[C@@H](C)[C@@H]4C(=O)N3Cc3ccccc3)c(F)c2)cc1
    1.2%, -1, 1%, 1%

Copied from the list:
Rango dissoc inh, `CC1CCCCN1CCCNc1c(C=O)c(=O)[nH]c2ccccc12` (centres undefined) = 1%
GLA inh pH 4.5, `CCn1c(Cc2ccccc2)nnc1SCC(=O)Nc1ccccc1N1CCOCC1` = 10

The list continues:
Values run as follows: Rango complex inh, GLA inh pH 4.5, miR-21 FLuc, Rango dissoc inh
Cc1ccccc1-c1nc(CN2CCC(C(=O)NCCN3CCOCC3)CC2)c(C)o1
    -1.3%, ., 0%, 2%
Cc1ccc(C(=O)NCC(=O)OC(C)C(=O)Nc2ccc(N(C)C)cc2)cc1C (centres undefined)
    16%, -2, -6%, 5%
Cc1cc(C)cc(N(C(=O)CNC(=O)c2ccco2)C(C(=O)NC2CCCC2)c2cccnc2)c1 (centres undefined)
    0.0%, -8, -2%, -12%
CC[n+]1c(C)sc2cc(C)ccc21
    3.6%, 12, 4%, -11%
CCN(c1ccc(F)cc1)S(=O)(=O)c1ccc2[nH]cc(C(=O)NCCCN3CCOCC3)c(=O)c2c1
    -0.7%, -10, 7%, -9%
Cc1cccc(OCC(=O)OCC(=O)NCC2CCCO2)c1C (centres undefined)
    0.2%, ., ., -2%
O=C1Nc2c(c(=O)[nH]c(=O)n2-c2ccccc2F)C(C(F)(F)F)(C(F)(F)F)N1
    1.4%, -5, -7%, 1%
CC(C)(C)c1cc(NS(=O)(=O)c2ccc(Br)s2)no1
    0.8%, ., -5%, 0%
Cn1c(N)c(C(=O)COC(=O)COc2ccc(Cl)cc2Cl)c(=O)n(C)c1=O
    -0.1%, ., ., -2%
CC[C@]1(C(=O)OC)[C@H]2C(=O)N(C)C(=O)[C@H]2[C@H]2CN(C)C(=NC)N21
    3.2%, ., ., 9%
COc1cc2c(cc1OC)CN(C(=O)CC1CC3CCC1C3)CC2 (centres undefined)
    1.1%, 2, -24%, -4%
Cn1c(N)c(NC(=S)NC2CCCCC2)c(=O)n(C)c1=O
    2.2%, ., ., 4%
Cc1ccc(N2CCN(C(=O)CN3C(=O)c4ccccc4C3=O)CC2)cc1
    -0.9%, -2, -3%, 24%
Cc1onc(-c2ccccc2)c1C(=O)Nc1sccc1C#N
    ?, ., 16%, -29%
COc1ccc(C)cc1Nc1n[n+](-c2ccccc2)c(-c2cc([N+](=O)[O-])cc(OC)c2O)s1
    4.4%, ., -3%, 8%
Cc1nc(Nc2ncc3c(n2)CC(C)(C)CC3=O)nc2ccccc12
    -1.3%, ., ., -3%
CC(C)(C)CN1C(N)=NC[C@H]1Cc1ccc(O)cc1
    4.8%, -9, 4%, 11%
O=C(COC(=O)Cc1cccc(F)c1)NCCc1ccccc1
    4.0%, ., ., -2%
COC(=O)N1CCN(c2ccc(C(C)=O)cc2)CC1
    -0.8%, -5, -15%, 1%
O=C(CCn1c(=S)oc2ccccc21)N1CCCCC1
    2.9%, 7, -33%, 0%
CNC(=O)c1[nH]cnc1C(=O)N[C@@H](CC(C)C)C(=O)OCc1ccccc1
    -1.7%, -1, 14%, 16%
O=C(Nc1cccc2c1CCCC2)C1CCCN(S(=O)(=O)c2cccc3nonc23)C1 (centres undefined)
    ?, 14, -7%, -12%
COc1ccc(N2CCN(C(=O)C3CCN(S(=O)(=O)c4cccs4)CC3)CC2)cc1
    -1.6%, 4[21.1 µM], 3%&12%, 3%
O=C1/C(=C/c2cccs2)COc2ccccc21
    -2.9%, -6, -37%, 2%
CCOC(=O)c1c(S(=O)(=O)NCC(=O)Nc2cccc(C)c2C)c(C)n(C)c1C
    -2.1%, ., -3%, -1%
C=CCN1C(=O)C(CC(=O)NCC)SC1=Nc1ccccc1CC (centres undefined)
    1.7%, ., -1%, 10%
COc1ccc(O)c(C(=O)c2cnc3c(c2)CN(C)C(=O)N3)c1
    -3.8%, 0, 16%, -17%
N#Cc1ccc(OCc2noc(-c3ccsc3)n2)cc1
    -2.1%, -8, -11%, -1%
O=C(NNC1CC(=O)N(c2cccc(Cl)c2)C1=O)c1cccs1 (centres undefined)
    -3.2%, 1, -11%, -5%
C#CC[N+](C)(C)CCCCCCCCC
    1.9%, 6, 30%, -11%
CCc1cc(=O)oc2cc(O[C@@H]3O[C@H](CO)[C@@H](O)[C@H](O)[C@H]3O)c(Cl)cc12
    -1.1%, ., 11%, 0%
N#CCCS(=O)(=O)c1nnnn1-c1ccccc1
    ., 4, ?, .
CCOC(=O)c1ccccc1NC(=O)COC
    -1.8%, 3, 2%, -3%
CCOc1ccc(NC(=O)C2CC(=O)N(CC)C(=Nc3ccc4c(c3)OCO4)S2)cc1 (centres undefined)
    7.2%, 9, -5%, 5%
Cc1ccc(Nc2nc(N)nc(CSc3nccn3C)n2)c(C)c1
    -5.7%, -9, -44%, -6%
COc1ccc(-c2nnc(SCC(=O)NC3CC3)o2)cc1
    -2.2%, ., ., 2%
CCOc1ccc(CC(=O)NNC(=O)NC2CCCCC2)cc1
    -5.4%, -1, -2%, 1%
CCCCn1cnc2c(Sc3c([N+](=O)[O-])ncn3C)nc(N)nc21
    -1.6%, ., ., -5%
CCCN(CCC)C1=CC(=[N+]2CCCC2)CC(C)(C)C1
    -5.0%, -1, ?, 0%
Cn1c2ccccc2c2c(=O)oc3ccccc3c21
    0.4%, ., ., -3%
CCC(=O)c1cc(F)c(N2CCN(S(=O)(=O)c3ccccc3)CC2)cc1C
    -3.5%, -5, 10%, 12%
NC(=S)Nc1ncc(C(F)(F)F)cc1Cl
    2.3%, 3, -27%, -2%
CSCCC(NC(N)=O)C(=O)NCC1CCCCC1 (centres undefined)
    4.3%, 0, -2%, 5%
CCOC(=O)C1CCCN(C(=O)CSc2ccc(NC(C)=O)cc2)C1 (centres undefined)
    -5.5%, 2, 1%, -13%
COc1cc(/C=C/C(=O)OCC(=O)N2CCN(S(=O)(=O)c3ccc(C)cc3C)CC2)ccc1OC(F)F
    -0.3%, ., ., -8%
C#CC(CO)N(CCN(Cc1ccccc1)C(C#C)CO)Cc1ccccc1 (centres undefined)
    0.7%, -11, 0%, 2%
CCOC(=O)C1(Cc2ccc(OC)cc2)CCN(C(=O)Cn2cnnn2)CC1
    -0.4%, 5, -3%, 20%
COCC(C)n1c(SCc2ccc(C(=O)OC)o2)nc2ccccc2c1=O (centres undefined)
    -1.1%, -4, 13%, 17%
O=C(Nc1cc(Cl)ccc1-n1cncn1)c1cccc(S(=O)(=O)N2CCOCC2)c1
    0.4%, ., ., 8%
CON(c1nc(Cl)nc(N(C)C)n1)S(=O)(=O)c1ccc(C)cc1
    -7.2%, ., 14%, 1%
CCN1C(=O)[C@@H]2[C@@H](c3ccc(SC4CCCCC4)c(OC)c3)N3CCC[C@@]3(C(=O)OC)[C@@H]2C1=O
    3.4%, ., ., -7%
Nc1nc(Cl)cc(N2CCOCC2)n1
    -3.3%, -3, -1%, 0%
COc1ccc([N+](=O)[O-])cc1NC(=O)Cc1ccc(C)cc1
    3.6%, 0, -6%, 3%
C/C(=N\NC(=S)NCc1ccccc1)c1ccc(C#N)cc1
    -0.5%, 11, -9%, 13%
Cc1cccc(CC(=O)NC2CCCCCC2)c1
    -2.2%, ., -37%, 22%
Cc1nc(C)n(CC(O)COc2ccc3cc(Br)ccc3c2)n1 (centres undefined)
    7.4%, 10, 6%, -4%
O=C(Nc1ccc2ccccc2n1)c1ccc(Cl)cc1
    -2.6%, ., -17%, 3%
COc1cc(C(=O)N2CCCc3ccccc32)c([N+](=O)[O-])cc1OC
    0.9%, ., 2%, 28%
COc1ccc(C(=O)OCC(=O)Nc2cc(C)on2)cc1S(=O)(=O)N1CCOCC1
    3.2%, -6, 0%, 18%
CCCN(CC(=O)Nc1ccccc1C)C(=O)c1ccc(S(=O)(=O)N2CCC(C)CC2)cc1
    -4.1%, ., ., -3%

(list continues)
Values run as follows: Rango complex inh, GLA inh pH 4.5, miR-21 FLuc, Rango dissoc inh
Cc1ccc(P(=O)(CO)c2ccc(C)cc2)cc1
    3.1%, -8, 4%, -16%
O=C(COc1ncnc2ccccc12)NCC1CCCO1 (centres undefined)
    -0.9%, -4, 3%, -13%
CC(=O)Nc1ccc(S(=O)(=O)NC2CC(=O)N(c3cccc(F)c3)C2)cc1 (centres undefined)
    -1.8%, ., ., 9%
O=C1CSC(=S)N1N1C(=O)c2cccc([N+](=O)[O-])c2C1=O
    ., 2, -2%, .
CCC(C(=O)Nc1nccs1)(C(F)(F)F)C(F)(F)F
    2.8%, -4, 0%, ?
COC(=O)c1cc(OC)nc2c1c(=O)n(C)c(=O)n2C
    0.2%, -8, -4%, -1%
O=C(NC1C/C=C\C(c2ccccc2)N(c2ccccc2)C(=O)C1)OCC1c2ccccc2-c2ccccc21 (centres undefined)
    ?, ., ., 1%
CC(=O)c1c(C)[nH]c(C(=O)COC(=O)c2ccc(Cl)nc2)c1C
    -2.0%, ., ., -11%
O=C(c1cccs1)N1CCCC(c2ccccc2)C1 (centres undefined)
    -2.0%, 1, -12%, -12%
O=C(O)CC(NC(=O)c1ccccc1NC(=O)c1ccccc1)C(=O)O (centres undefined)
    1.5%, 1, -7%, 1%
CC(=O)Nc1ccc(C(=O)Cn2c3[n+](c4c(F)c(F)ccc42)CCCCC3)cc1
    1.1%, -6, -1%, 4%
C=CCSc1nnc(-c2cc3c(C(F)(F)F)nn(C)c3s2)n1C
    -1.8%, -13, -6%, -3%
Cc1nn(C)cc1C(=O)c1ccccc1
    1.5%, ., ., -2%
CC(=O)Nc1cc(C(=O)N(C)Cc2ccco2)ccc1Sc1ccc(C)cc1
    -3.2%, 4, -3%, 0%

Some of the compounds tested; the hit share may differ from the screen's.
